GLA inh pH 4.5 = blocks human alpha-galactosidase A at pH 4.5; P06280; 230,000 tested, under 10 active; AID 1467; activity change, negative = inhibition, % at 105 µM; purified enzyme, 4-MU-alpha-Gal fluorescence, pH 4.5; inconclusive = small, poorly fitted or top-dose-only inhibition, or a rising curve; inactive = flat fitted curve, though single readings scatter; no compound was filed as active;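 also: 0% = full activity with enzyme and -100% = basal without enzyme; dose as in the result columns while the protocol names 77 µM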
Rango complex inh = prevents formation of the Rango-importin beta complex. Rango CFP/YFP FRET sensor + importin beta, 45 min. 340,000 tested, 0.031% active. Q14974. Potency, µM (top dose mostly 92.2 µM), for inactives: at the highest dose inhibition of complex formation. AID 540263; active = rising FRET ratio curve, often small or poorly fitted; inconclusive = mostly compound fluorescence or quenching in the first reads; inactive = flat curves in all reads;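 also: potency is read from the fitted curve at half-maximal effect; 0% = DMSO wells and 100% = buffer wells lacking importin beta; nearly all actives have a fitted effect of over 15% in size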
Target sequence (Q14974 whole entry, looked up): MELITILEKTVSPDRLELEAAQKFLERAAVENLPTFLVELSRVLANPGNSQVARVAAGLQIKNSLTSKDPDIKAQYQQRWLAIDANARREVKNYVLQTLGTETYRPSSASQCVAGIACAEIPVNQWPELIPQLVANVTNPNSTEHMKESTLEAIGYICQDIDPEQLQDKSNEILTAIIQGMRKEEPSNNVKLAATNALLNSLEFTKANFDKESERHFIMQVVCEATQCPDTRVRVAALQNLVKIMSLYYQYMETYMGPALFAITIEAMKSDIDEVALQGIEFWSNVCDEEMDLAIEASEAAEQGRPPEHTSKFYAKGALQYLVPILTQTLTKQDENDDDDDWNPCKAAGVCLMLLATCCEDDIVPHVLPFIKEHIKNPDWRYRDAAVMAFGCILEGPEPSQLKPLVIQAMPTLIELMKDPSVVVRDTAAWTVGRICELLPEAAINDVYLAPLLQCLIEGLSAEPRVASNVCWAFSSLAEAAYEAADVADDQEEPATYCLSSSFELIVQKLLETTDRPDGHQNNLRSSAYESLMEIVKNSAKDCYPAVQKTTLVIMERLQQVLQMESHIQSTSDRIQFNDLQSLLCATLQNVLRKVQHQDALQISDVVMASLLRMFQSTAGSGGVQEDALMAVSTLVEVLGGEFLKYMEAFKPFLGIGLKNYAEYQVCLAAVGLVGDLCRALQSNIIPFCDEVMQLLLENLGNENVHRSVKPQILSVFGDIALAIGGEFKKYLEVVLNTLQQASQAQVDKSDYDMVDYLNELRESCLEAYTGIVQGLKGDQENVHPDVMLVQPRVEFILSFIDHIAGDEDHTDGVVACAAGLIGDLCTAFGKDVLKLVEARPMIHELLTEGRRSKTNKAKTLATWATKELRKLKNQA
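FRET biosensor Rango (snurportin 1 IBB between N-terminal EYFP and C-terminal Cerulean), 50 nM in PBS/1 mM DTT/0.02% Tween-20/0.1% BSA, preincubated 5 min RT with compound; 0.125 microM importin beta added, 45 min RT, CFP/YFP FRET ratio read.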
Rango release inh = inhibition of RanGTP-driven Rango-importin beta dissociation; AID 540253; O95149+P62826; 340,000 tested, 0.071% active; Potency, µM (titrated, usually from 46.1 µM), for inactives: at the top dose activity change, negative = inhibition; Biochemical FRET Rango-importin beta, RanGTP-induced dissociation; active means falling FRET ratio curve, often poorly fitted, with flat reads before Ran was added; inconclusive means other falling curves, or compound fluorescence or quenching; inactive means flat or rising ratio curve;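 also: potency is read from the fitted curve at half-maximal effect; % of control where 0% means no effect; nearly all actives have a fitted effect of over 45% in size; -100% = wells without RanGTP and RCC1; the record marks most hits as doubtful in a second field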
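Rango FRET biosensor (snurportin-1 IBB flanked by N-terminal EYFP and C-terminal CFP10) at 0.1 uM, with 0.25 uM importin beta in PBS, 1mM DTT, 0.02% Tween-20, 0.1% BSA. 0.6 uM Ran, 2mM GTP and 0.2 uM RCC1 were then added for 45 min at room temperature. Inhibition read as loss of FRET rise.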
miR-21 reporter = raises the signal of a miR-21 reporter; HeLa miR-21 FLuc reporter, luciferase, 48 h; Potency, µM (series often up to 38.3 µM), without a hit: top-dose reporter change, positive = more light; 340,000 tested, under 10 active; active = well fitted rising curve with a large enough effect; inconclusive = small, poorly fitted or top-dose-only effect; inactive = no such curve, though single readings can be large or run the other way;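 also: % of control where 0% means no effect; miR-21 action dims this reporter so a rising signal means less miR-21 action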
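Compounds were titrated across several concentrations (up to approximately 40 uM) and incubated 48 hours with HeLa miR-21-FLuc reporter cells (miR-21 target sequence downstream of FLuc, endogenous miR-21). Readout was firefly luciferase luminescence after lytic detection reagent.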
Starred values were filed as active, the others as inactive; ? = inconclusive; nt = no result given; & = joins results of further samples.

Start of the data: the first 3 entries, to show the layout:
No.	Molecule	miR-21 reporter	Rango complex inh	Rango release inh	GLA inh pH 4.5
1	CSc1n[nH]c2nc3c(c(=O)n12)C1(CCCC1)Cc1ccccc1-3	4%	?	?	3
2	COc1cc(C(=O)N2CCC3(CC2)NCCc2[nH]cnc23)cc(OC)c1OC	-3%	-3.5%	-3%	nt
3	Fc1ccc(C(c2nnnn2C2CCCC2)N2CCN(Cc3ccncc3)CC2)cc1 (configuration not stated)	-8%	-6.1%	-6%	-4

The whole of this part (from the top)
No.	Molecule	miR-21 reporter	Rango complex inh	Rango release inh	GLA inh pH 4.5
1	CSc1n[nH]c2nc3c(c(=O)n12)C1(CCCC1)Cc1ccccc1-3	4%	?	?	3
2	COc1cc(C(=O)N2CCC3(CC2)NCCc2[nH]cnc23)cc(OC)c1OC	-3%	-3.5%	-3%	nt
3	Fc1ccc(C(c2nnnn2C2CCCC2)N2CCN(Cc3ccncc3)CC2)cc1 (configuration not stated)	-8%	-6.1%	-6%	-4
4	CC(=O)N1CCc2c(sc(NC(=O)c3ccc([N+](=O)[O-])o3)c2C#N)C1	-23%	?	-11%	-4
5	Cc1nn(C)c(C)c1C(=O)NN	1%	2.7%	-2%	1
6	O=C(N/N=C/C=C/c1ccccc1)c1ccccn1	-70%	-3.0%	-23%	1
7	Cc1ccc2[nH]c(=O)c3cc(C(=O)NCCC(C)C)sc3c2c1	-9%	2.4%	6%	nt
8	O=C(c1ccc(C(F)(F)F)cc1)c1c[nH]c(C(=O)NCCCn2ccnc2)c1	3%	-1.4%	1%	5
9	CC/C(=N\NC(=S)NC(C)C)c1ccc(OC)c(OC)c1	-35%	-0.7%	-11%	4
10	O=C(Cc1ccc(F)cc1)N[C@@H]1c2ccccc2CC[C@@H]1O	nt	1.6%	7%	nt
11	O=C(Nc1cc(-c2nc3ncccc3o2)ccc1Cl)c1cccs1	4%	0.2%	-17%	nt
12	O=[N+]([O-])c1cc(S(=O)(=O)Oc2ccccc2)ccc1Cl	nt	0.6%	?	nt

Complete entries, quoted from the list. Order of screens: miR-21 reporter	Rango complex inh	Rango release inh	GLA inh pH 4.5
`CSc1n[nH]c2nc3c(c(=O)n12)C1(CCCC1)Cc1ccccc1-3` as listed: 4%	?	?	3
`Cc1ccc2[nH]c(=O)c3cc(C(=O)NCCC(C)C)sc3c2c1` as listed: -9%	2.4%	6%	nt
`O=C(Nc1cc(-c2nc3ncccc3o2)ccc1Cl)c1cccs1` as listed: 4%	0.2%	-17%	nt
`O=C(Cc1ccc(F)cc1)N[C@@H]1c2ccccc2CC[C@@H]1O` as listed: nt	1.6%	7%	nt
`O=C(c1ccc(C(F)(F)F)cc1)c1c[nH]c(C(=O)NCCCn2ccnc2)c1` as listed: 3%	-1.4%	1%	5

The list goes on.
No.	Molecule	miR-21 reporter	Rango complex inh	Rango release inh	GLA inh pH 4.5
13	O=C(NC(=S)Nc1ccc(CN2CCOCC2)cc1)c1ccc([N+](=O)[O-])cc1Cl	-3%	1.0%	-18%	2
14	O=c1c(Cl)c(Cl)cnn1Cc1ccccc1Cl	?	0.0%	0%	2
15	COC(=O)[C@@H]1CC[C@H](C)[C@@H](c2ccc(C)cc2)N1C(=O)c1ccc(/C=N/OC[C@@H](O)COCc2ccco2)cc1	9%	nt	nt	-6
16	CCn1c(=S)sc2c(=O)n(CC(=O)Nc3ccccc3)c(C)nc21	7%	1.9%	-4%	nt
17	CC(C)CC1C(C#N)=C(N)SC(N)=C1C#N	6%	?	?	-2
18	COCCn1c(=O)c2c(nc3n2CCCN3Cc2ccccc2)n(C)c1=O	6%	-1.6%	-11%	nt
19	O=C(/C=C/c1cc(Br)ccc1F)Nc1cccnc1	-35%	-1.7%	6%	nt
20	CN(C(=O)COC(=O)c1n[nH]c2ccccc12)C1CCS(=O)(=O)C1 (configuration not stated)	0%	-4.5%	0%	5
21	COc1ccc2cc(-c3[nH]ncc3CN3CCCC3c3nonc3C)ccc2c1 (configuration not stated)	4%	0.0%	1%	0
22	CC(=O)NC(Cc1cccc(F)c1)C(=O)NC1CCN(c2nnnn2-c2ccccc2)CC1 (configuration not stated)	-1%	-3.0%	-4%	-3
23	COc1ccc(-c2cc(C(=O)N3CCCCCC3)c3ccccc3n2)c(OC)c1	4%	-3.2%	0%	nt
24	COC(=O)c1sc(-c2ccc(C(C)(C)C)cc2)cc1NC(=O)CCC(=O)O	-60%	-0.5%	11%	-6

Sorted by SMILES length (falling): three of the compounds above.
No.	Molecule	miR-21 reporter	Rango complex inh	Rango release inh	GLA inh pH 4.5
20	CN(C(=O)COC(=O)c1n[nH]c2ccccc12)C1CCS(=O)(=O)C1 (configuration not stated)	0%	-4.5%	0%	5
18	COCCn1c(=O)c2c(nc3n2CCCN3Cc2ccccc2)n(C)c1=O	6%	-1.6%	-11%	nt
11	O=C(Nc1cc(-c2nc3ncccc3o2)ccc1Cl)c1cccs1	4%	0.2%	-17%	nt

Only miR-21 reporter and Rango release inh, for two of the compounds above:
item | Structure | miR-21 reporter | Rango release inh
13 | O=C(NC(=S)Nc1ccc(CN2CCOCC2)cc1)c1ccc([N+](=O)[O-])cc1Cl | -3% | -18%
14 | O=c1c(Cl)c(Cl)cnn1Cc1ccccc1Cl | ? | 0%

Following part.
No.	Molecule	miR-21 reporter	Rango complex inh	Rango release inh	GLA inh pH 4.5
25	COc1ccc(N2CCN(Cc3nnc(-c4ccccc4)o3)CC2)cc1	-7%	5.5%	1%	-1
26	COc1ccccc1NS(=O)(=O)c1ccc(C(=O)N2CCCC(C)C2)cc1 (configuration not stated)	-2%	7.3%	-14%	nt
27	CCOC(=O)N1CCN(C(=O)c2cc3c(ccc4ccccc43)oc2=O)CC1	-13%	-1.0%	-5%	24
28	Cc1cc(C)cc(C(=O)N(Cc2ccco2)c2c(N)n(Cc3ccccc3)c(=O)[nH]c2=O)c1	nt	0.0%	-3%	nt
29	C[C@H]1CN([C@@H](C)CO)C(=O)c2cccc(NC(=O)C3CC3)c2O[C@H]1CN(C)C(=O)Nc1ccc2c(c1)OCO2	nt	-1.0%	-1%	nt
30	COc1ccc(NCc2cccnc2)cc1	-1%	-4.4%	-2%	nt
31	COC(=O)[C@@]1(Cc2ccc(F)cc2)[C@H]2c3cc(C(=O)N(C)C)n(Cc4nc5ccccc5[nH]4)c3C[C@H]2CN1C(=O)c1ccccc1	5%	?	-20%	11&-8
32	N#Cc1ccccc1N1CCN(C(=O)c2ccc(NC(=O)c3ccc(Br)o3)cc2)CC1	nt	?	-27%	nt
33	COc1cccc(N/C=C/C(=O)c2ccc(Cl)cc2)c1	-41%	?	?	-6
34	COc1ccc(C)cc1NC(=O)CN(C)S(=O)(=O)c1ccc2c(c1)CC(C)N2C(C)=O (configuration not stated)	-3%	-0.9%	4%	nt
35	CCN1C(=O)CCCc2ccccc21	2%	1.6%	-8%	-17
36	CC(C)(C)CC(=O)O/N=C(\N)c1ccncc1	-13%	0.3%	8%	3
37	CCSc1nnc(-c2ccc(Cl)cc2Cl)o1	-53%	2.6%	-3%	-13
38	COc1cc2ccccc2cc1C(=O)NC1CCCCC1	nt	4.9%	4%	nt
39	Cn1cnc([N+](=O)[O-])c1NC(C)(C)C	2%	-0.7%	-11%	-1
40	Cc1c(Br)c([N+](=O)[O-])nn1CC(=O)Nc1sc2c(c1C(=O)OC(C)C)CCCC2	0%	-1.1%	-6%	-15
41	O=C(O)c1ccc(CSc2nnc(-c3ccncc3)n2CC2CCCO2)cc1 (configuration not stated)	-2%	-3.2%	11%	-5
42	CCOCCCNC(=O)c1ccc(OC)cc1	-37%	0.6%	-6%	2
43	CN1CCN(S(=O)(=O)c2ccc(C(=O)Nc3ccccc3)cc2)CC1	-10%	-0.7%	4%	-8
44	COCCCn1c(SCC(=O)NC2CCCC2)nnc1-c1ccncc1	-2%	-0.2%	-15%	nt
45	O=C(CNC(=O)c1ccc(Br)o1)NNC(=O)c1ccccc1O	nt	0.4%	4%	nt
46	Cc1c(NC(=O)C2CC(c3ccc(F)cc3)=NO2)c(=O)n(-c2ccccc2)n1C (configuration not stated)	-6%	2.4%	10%	-2
47	C[N+](C)(CCOc1ccccc1)Cc1ccccc1	nt	-2.2%	-6%	nt
48	COc1ccc(N2CCN(CC(O)COC(c3ccc(F)cc3)c3ccc(F)cc3)CC2)cc1 (configuration not stated)	4%	-1.2%	8%	nt
49	Cc1ccc(NS(=O)(=O)c2ccc(C(=O)OCC(=O)N3CCCCC3)cc2)cc1	nt	-4.9%	0%	nt
50	Cc1csc(=O)n1CC(=O)OCC(=O)NCc1ccccc1	nt	0.0%	1%	nt
51	COc1ccc(N(CC(=O)Nc2cccc3ccccc23)S(C)(=O)=O)c(OC)c1	-13%	4.1%	-12%	nt
52	COc1cc(OC)cc(C(=O)NC(=S)NNC(=O)c2cnccn2)c1	-3%	0.3%	-16%	1
53	COc1ccc(OC)c(S(=O)(=O)NCCOC23CC4CC(CC(C4)C2)C3)c1	5%	-4.7%	-16%	-4
54	CN(Cc1ccc(-n2cccn2)cc1)Cc1nc(-c2cnccn2)no1	2%	0.5%	-19%	-4
55	O=C(NCC1CCN(Cc2ccc(F)cc2)CC1)Nc1cc(F)ccc1F	2%	3.5%	0%	nt
56	COc1ccc(NC(=S)N2CCCC2)c(OC)c1	-1%	1.4%	2%	-17
57	COc1cc(C(=O)NCc2nnc(SCC(=O)N3CCC(C)CC3)o2)cc(OC)c1OC	0%	2.8%	0%	10
58	CC(=O)c1ccc(C(=O)N2CCCC(C(=O)c3cc(F)ccc3F)C2)s1 (configuration not stated)	-16%	-0.5%	-9%	-8
59	c1ccc(CCN2CN=C(Nc3nc4ccccc4s3)NC2)cc1	-17%	4.9%	2%	-7
60	Cc1cn(CC(C)C)c(=O)n(-c2ccccc2)c1=O	nt	1.4%	22%	nt
61	Cc1noc(C)c1C(=O)OCC(=O)C12CC3CC(CC(C3)C1)C2	-2%	0.2%	-9%	-1
62	CC(=O)c1ccc(N2CCN(C(=O)c3n[nH]c4ccccc34)CC2)cc1	9%	2.1%	17%	8
63	O=C(c1cc2nc(-c3cccs3)cc(C(F)(F)Cl)n2n1)N1CCCc2ccccc21	-9%	-1.1%	6%	-6
64	O=C1N/C(=C/c2ccc(Br)cc2)C(O)=C1C=NCc1ccccc1	1%	6.0%	-8%	-3
65	Cc1ccc(Oc2nc3ccccc3n3c(C)nnc23)cc1	-5%	8.4%	-10%	1
66	O=C(O)CCCC(=O)Nc1ccc(N=Nc2ccccc2)cc1	0%	0.6%	9%	-18
67	CC1CCC2C(=O)N(c3ccc(C(=O)NCc4ccccc4)cc3)C(=O)C2C1 (configuration not stated)	-3%	0.2%	-11%	-13
68	CCCSc1nc2c(cnn2-c2ccccc2)c(=O)n1N	-48%	-4.5%	-7%	5
69	COc1ccc(C(=O)Oc2ccc(N(C)S(=O)(=O)c3ccccc3)cc2)cc1[N+](=O)[O-]	2%	4.8%	0%	nt
70	Cc1ccc(C)c(OCC(=O)NCC(C)C)c1C	-4%	-0.9%	6%	4
71	CCC(C)(C)NC(=O)C(c1ccc(F)cc1)N(Cc1ccco1)C(=O)c1cnccn1 (configuration not stated)	0%	-0.8%	11%	-3
72	O=C(NCCN1CCCCC1)Nc1ccc(F)cc1F	1%	-1.7%	5%	nt
73	CCCNC(=O)C(Cc1ccc(I)cc1)NC(=O)c1ccc(C#N)cc1 (configuration not stated)	nt	-1.9%	16%	nt

Screens deposited in PubChem by National Center for Advancing Translational Sciences (NCATS).

These rows are one share of the data. The share of hits here may be higher or lower than overall.
